N370S GC mod: qHTS Assay for Inhibitors and Activators of N370S glucocerebrosidase as a Potential Chaperone Treatment of Gaucher Disease | 330,000 tested, 0.092% active | AID 2101, 2009 | Potency, µM (highest dose often 59.4 µM), for the others: at the top dose activity change, negative = inhibition, usual class: inhibitors | N370S GC spleen homogenate, 4MU-glucoside fluorescence;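 further: 0% = full enzyme activity and -100% = no enzyme basal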
FEN1 inh: qHTS Assay for the Inhibitors of Human Flap endonuclease 1 (FEN1); P39748; Recombinant FEN1 flap cleavage, fluorescence, 15 min; Potency, µM (doses to about 114 µM), for inactives: at the top dose activity change, negative = inhibition, usual class: inhibitors; 390,000 tested, 0.35% active; further: nearly all actives have a fitted effect of over 65% in size
Target sequence (P39748 whole entry, looked up): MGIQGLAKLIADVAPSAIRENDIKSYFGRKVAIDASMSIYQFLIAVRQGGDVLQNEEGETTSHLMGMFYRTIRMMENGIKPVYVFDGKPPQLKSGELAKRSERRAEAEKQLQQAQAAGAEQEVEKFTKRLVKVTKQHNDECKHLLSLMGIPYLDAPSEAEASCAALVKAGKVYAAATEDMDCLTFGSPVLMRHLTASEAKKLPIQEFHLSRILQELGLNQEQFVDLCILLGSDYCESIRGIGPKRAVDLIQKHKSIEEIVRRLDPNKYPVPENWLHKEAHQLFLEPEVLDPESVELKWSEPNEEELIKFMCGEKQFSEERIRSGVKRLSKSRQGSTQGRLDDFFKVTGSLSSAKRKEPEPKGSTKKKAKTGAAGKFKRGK
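Steps: FEN1 (10 nM) dispensed; compound added by pin tool; 15 min at room temperature; substrate added to 50 nM final; reads at 0 min and 15 min; data normalized and fitted (four-parameter Hill).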
* = called active by the depositor; & = joins results of further samples; [ ] = remark or other dose. The call rests on the fitted dose curve; in most records, active means well fitted curve in the direction sought with a large enough effect; inconclusive means small, poorly fitted or top-dose-only effect, or another doubt; inactive means no such curve, though single readings can be large; an effect the other way counts as inactive or inconclusive. Unless noted, on the % scale 0 is the no-effect control and ±100 the full control effect; potency means the concentration at half of the fitted maximal effect.

For COc1ccc(S(=O)(=O)N(C)c2ccc(C(=O)Nc3cccnc3)cc2)cc1 the results were N370S GC mod -21% and FEN1 inh 2%.
C=CCN1C(=O)/C(=C/c2ccc(OCC(=O)O)cc2)S/C1=N/c1nccs1 was read as N370S GC mod -1% and FEN1 inh -14%.
For COc1ccc(NC(=O)CCOc2ccccc2)cc1 the results were N370S GC mod -15% and FEN1 inh 1%.
For O=C(Nc1cc(Cl)ccc1N1CCCC1)C1=COCCO1 the results were FEN1 inh -16%.
Screening O=C(c1ccco1)N1CCN(C2CCCC2)CC1 returned N370S GC mod 0% and FEN1 inh 5%.
`CC(=O)N1CCc2cc(S(=O)(=O)CCC(=O)NCc3cccs3)ccc21` gave N370S GC mod 5% and FEN1 inh -10%.
`N#CCCN(C(=O)CSc1nc2nc(-c3cccs3)cc(C(F)(F)F)c2c(=O)[nH]1)c1ccccc1` gave N370S GC mod 3% and FEN1 inh -12%.
O=c1oc(-c2ccccc2[N+](=O)[O-])nc2ccccc12 was read as N370S GC mod -10% and FEN1 inh 3%.
O=C1c2ccccc2C(=O)N1CCSC(=S)N1CCOCC1 was read as N370S GC mod -4% and FEN1 inh -10%.
`COc1ccc(Oc2nc(-c3ccccn3)ncc2OC)cc1` gave N370S GC mod 0% and FEN1 inh 3%.
For O=C(Nc1ccc2sc3ccccc3c(=O)c2c1)c1ccccc1Cl the results were N370S GC mod -27% and FEN1 inh -4%.
COc1ccc(NC(=O)Nc2ccccc2F)c([N+](=O)[O-])c1 was read as N370S GC mod 9% and FEN1 inh 5%.
`COc1ccc(-c2cc(C(=O)NCCCN3CCCC3=O)c3ccccc3n2)cc1` gave N370S GC mod 2% and FEN1 inh 1%.
`COC(=O)C(C)NS(=O)(=O)c1ccc(NC(C)=O)cc1` (stereo not given) gave N370S GC mod 5% and FEN1 inh 2%.
Screening CCN(CC)C(=O)CSc1nc2ccccc2c(=O)[nH]1 returned N370S GC mod 13% and FEN1 inh -13%.
CN(C)c1ccc(NS(=O)(=O)c2cc(Cl)ccc2Cl)cc1 was read as N370S GC mod -6% and FEN1 inh -7%.
For CC(=O)Nc1cccc(NC(=O)c2ccc3[nH]c(C)c(C)c3c2)c1 the results were N370S GC mod -10% and FEN1 inh -6%.
Screening COc1ccccc1NC(=O)COc1ccc(C(=O)NCC2CCCO2)cc1OC (stereo not given) returned FEN1 inh -1%.
For N#CCCS(=O)(=O)c1ccc(N)cc1 the results were N370S GC mod 3% and FEN1 inh 3%.
`O=C(NCc1ccccc1Br)C1CCCO1` (stereo not given) gave N370S GC mod -9% and FEN1 inh -4%.
`Cc1nc2ccc(NC(=O)[C@H](C)N3C(=O)C4CC=CCC4C3=O)cc2s1` (stereo not given in full) gave FEN1 inh -5%.
Screening O=C(O)c1ccc2c3c(cccc13)C(=O)N(c1cccc3ccccc13)C2=O returned N370S GC mod -2% and FEN1 inh 2%.
`CCn1c(SCC(=O)n2c(C)c(C)c3ccccc32)nnc1-c1ccco1` gave N370S GC mod 5% and FEN1 inh -1%.
`Cc1ccc(S(=O)(=O)Nc2cccc(-n3cnnn3)c2)cc1C(=O)O` gave N370S GC mod -4% and FEN1 inh 0%.
Screening CCS(=O)(=O)Nc1cccc(C2=NN(S(=O)(=O)c3ccc(C)cc3)C(c3cccs3)C2)c1 (stereo not given) returned N370S GC mod 12% and FEN1 inh -6%.
COc1ccc(/C=N/Nc2nc3ccccc3o2)cc1O was read as N370S GC mod 16% and FEN1 inh -22%.
`Cc1ccc(Nc2ccc(S(=O)(=O)N3CCOCC3)cc2[N+](=O)[O-])c(C)c1` gave N370S GC mod -14% and FEN1 inh 1%.
For COc1ccc(N2CCN(C(=O)C3CCN(C(=O)c4ccc([N+](=O)[O-])cc4)CC3)CC2)cc1 the results were N370S GC mod -5% and FEN1 inh -9%.
For COC(=O)c1sc2nc3c(cc2c1N)CCCC3 the results were N370S GC mod -2% and FEN1 inh 4%.
For COc1ccc(S(=O)(=O)Nc2cc3c4c(oc3c3ccccc23)CCCC4=O)cc1 the results were FEN1 inh -11%.
COc1ccc(-c2c(O)c3c(OC)c4c(cc3oc2=O)OC(C)(C)CC4)cc1 was read as N370S GC mod inconclusive.
For Cc1ccc(OCCn2c(NC(=O)c3ccco3)nc3ccccc32)cc1 the results were N370S GC mod 10% and FEN1 inh -7%.
CCOc1ccccc1NC(=O)C(=O)c1cc(C)n(-c2cccc(C)c2C)c1C was read as FEN1 inh 14%.
Cc1ccc(C)c(NC(=O)C2CC(Cl)=CCC2C(=O)O)c1 (stereo not given) was read as N370S GC mod -1% and FEN1 inh 0%.
Screening CCOC(=O)C1(Cc2ccccc2Cl)CCN(S(=O)(=O)N(C)C)CC1 returned N370S GC mod -3% and FEN1 inh 13%.
Screening Cc1cc(C(=O)NN=Cc2ccc(-c3ccc(F)cc3)o2)c(C)o1 returned FEN1 inh -9%.
Screening CCN(CC(=O)NCc1cccs1)C(=O)CCOc1ccccc1 returned FEN1 inh 7%.
For c1csc(-c2nnc(NC3CCCCC3)c3ccccc23)c1 the results were N370S GC mod -1% and FEN1 inh -17%.
CCC(C)n1c(SCC(=O)Nc2cc(C)on2)nc2ccccc2c1=O (stereo not given) was read as N370S GC mod 6% and FEN1 inh -1%.
For O=C(Nc1ccc(Br)cc1)Nn1cnnc1 the results were N370S GC mod -5% and FEN1 inh 9%.
O=C(Nc1ccc2ccccc2c1)[C@H]1C[C@@H]1[C@H](NP(=O)(c1ccccc1)c1ccccc1)c1ccccc1 was read as N370S GC mod 4%.
For CC1(OC(=O)CCc2ccccc2)C(=O)C=C2C=C(C3CC3)OC=C2C1=O (stereo not given) the results were N370S GC mod 8%.
Screening CCOC(=O)COc1ccc(S(=O)(=O)Nc2ccc3c(c2)OCCO3)cc1 returned N370S GC mod -4% and FEN1 inh 4%.
For O=C(CN(Cc1ccc(Br)cc1)S(=O)(=O)c1ccccc1)NCc1ccncc1 the results were N370S GC mod -24% and FEN1 inh -2%.
Screening CCCn1c(N)c(N(CCOC)C(=O)CSc2cc(C)c3cccc(C)c3n2)c(=O)[nH]c1=O returned FEN1 inh -7%.
O=C(Nc1ccc2c(c1)OCO2)C1CCCN1C(=O)Nc1cccc(F)c1 (stereo not given) was read as N370S GC mod 0% and FEN1 inh 10%.
Screening Cc1cc(C)c(N(C(=O)CN2C(=O)c3ccccc3S2(=O)=O)C(C(=O)NCC2CCCO2)c2ccc(F)cc2)c(C)c1 (stereo not given) returned N370S GC mod -19% and FEN1 inh -4%.
`CCOc1ccc(NC(=O)c2c(Nc3ccccc3C)sc(C(=O)c3ccc(Cl)cc3)c2N)cc1` gave FEN1 inh 2%.
Screening O=C(CC1(CC(=O)N2CCOCC2)CCCC1)Nc1ccc(F)cc1 returned FEN1 inh 11%.
For CCCN(CCC)CCCNC(=O)Cn1cnc2sc(C)c(S(=O)(=O)N3CCC(C)CC3)c2c1=O the results were N370S GC mod -1% and FEN1 inh -16%&-3%.
`CC1(C(=O)NCc2ccc(Cl)c(Cl)c2)Oc2cccnc2NC1=O` (stereo not given) gave N370S GC mod 30% and FEN1 inh -4%.
Screening CC(=O)c1cc2ccccc2oc1=O returned N370S GC mod -8%[21.6 µM] and FEN1 inh 0%.
For Cc1cc([N+](=O)[O-])nn1CCCC(=O)N1CCN(c2ccccc2)CC1 the results were N370S GC mod -11% and FEN1 inh 3%.
COc1ccc(C(=O)NC(NC(=O)c2ccc(OC)c(OC)c2)c2ccccc2F)cc1OC was read as N370S GC mod 18% and FEN1 inh -6%.
Nc1c(Nc2ccccc2)c2ccccc2oc1=O was read as N370S GC mod -12% and FEN1 inh -2%.
For CCN1CCN(c2ccc(S(=O)(=O)N3CCCCC3)cc2NC(=O)Cc2ccc(Cl)c(Cl)c2)CC1 the results were N370S GC mod -25% and FEN1 inh -15%.
Cc1cc(NC(=O)c2ccno2)no1 was read as N370S GC mod -4% and FEN1 inh -11%.
`CCCN1CCN(CCCNC(=O)Cn2nc(C)n3c(cc4cc(OC)ccc43)c2=O)CC1` gave N370S GC mod -9% and FEN1 inh -2%.
For CCN1CNC(=S)N(Cc2ccccc2)C1 the results were N370S GC mod -20% and FEN1 inh 2%.
Cc1cc(C)c(S(=O)(=O)N2CCN(C3CC(=O)N(c4ccccc4Cl)C3=O)CC2)c(C)c1 (stereo not given) was read as FEN1 inh 13%.

Quoted at random: six entries already listed
Nc1c(Nc2ccccc2)c2ccccc2oc1=O was read as N370S GC mod -12% and FEN1 inh -2%.
For CCCN(CCC)CCCNC(=O)Cn1cnc2sc(C)c(S(=O)(=O)N3CCC(C)CC3)c2c1=O the results were N370S GC mod -1% and FEN1 inh -16%&-3%.
Screening CC(=O)c1cc2ccccc2oc1=O returned N370S GC mod -8%[21.6 µM] and FEN1 inh 0%.
For Cc1cc([N+](=O)[O-])nn1CCCC(=O)N1CCN(c2ccccc2)CC1 the results were N370S GC mod -11% and FEN1 inh 3%.
COc1ccc(C(=O)NC(NC(=O)c2ccc(OC)c(OC)c2)c2ccccc2F)cc1OC was read as N370S GC mod 18% and FEN1 inh -6%.
Cc1cc(NC(=O)c2ccno2)no1 was read as N370S GC mod -4% and FEN1 inh -11%.

Continuation.
`COc1ccc(C2CC(c3cccs3)=Nc3ccccc3S2)cc1` (stereo not given) gave N370S GC mod 5% and FEN1 inh -7%.
Screening Cc1cc(C(=O)OCC(=O)c2cccc([N+](=O)[O-])c2)c2ccccc2n1 returned N370S GC mod 4% and FEN1 inh -1%.
`COc1ccc(CCNC(=O)COC(=O)COc2ccc(C#N)cc2)cc1` gave N370S GC mod 0% and FEN1 inh 0%.
For Cc1ccc(-c2nn(-c3ccccc3)cc2/C=C/C(=O)Nc2nccs2)cc1 the results were N370S GC mod 22% and FEN1 inh -4%.
Screening CCCOc1ccc(/C=N/NC(=O)CSCc2ccc([N+](=O)[O-])cc2)cc1OCC returned N370S GC mod -6% and FEN1 inh -13%.
`CCC1CCCCN1C(=O)COc1cccc2c1CCN(C)C2=O` (stereo not given) gave N370S GC mod 1% and FEN1 inh 9%.
`O=C(COC(=O)c1ccc(F)c(S(=O)(=O)N2CCOCC2)c1)NC1CCCCC1` gave FEN1 inh -19%.
Screening CCNC(=S)NCCN1CCCCC1 returned N370S GC mod 2% and FEN1 inh 6%.
For COC(=O)[C@H](CC(C)C)N(Cc1ccccc1)S(=O)(=O)N(Cc1ccc(OC)cc1)[C@@H](CC(C)C)C(=O)OC the results were FEN1 inh -29%&-22%.
`CC(C)CC(=O)Nc1ccc(C(=O)NN2C(=O)c3ccccc3C2=O)cc1` gave N370S GC mod 2% and FEN1 inh -8%.
Screening Cc1[nH]c2ccccc2c1C(=O)CSc1ncn[nH]1 returned N370S GC mod 8% and FEN1 inh -8%.
For CC(C)OC(=O)c1c(NC(=O)CCC(=O)O)sc2c1CCCCC2 the results were N370S GC mod 13% and FEN1 inh 1%.

Grouped by structure, the entries above with a nitro group on carbon (seven)
O=c1oc(-c2ccccc2[N+](=O)[O-])nc2ccccc12 was read as N370S GC mod -10% and FEN1 inh 3%.
COc1ccc(NC(=O)Nc2ccccc2F)c([N+](=O)[O-])c1 was read as N370S GC mod 9% and FEN1 inh 5%.
`Cc1ccc(Nc2ccc(S(=O)(=O)N3CCOCC3)cc2[N+](=O)[O-])c(C)c1` gave N370S GC mod -14% and FEN1 inh 1%.
For COc1ccc(N2CCN(C(=O)C3CCN(C(=O)c4ccc([N+](=O)[O-])cc4)CC3)CC2)cc1 the results were N370S GC mod -5% and FEN1 inh -9%.
For Cc1cc([N+](=O)[O-])nn1CCCC(=O)N1CCN(c2ccccc2)CC1 the results were N370S GC mod -11% and FEN1 inh 3%.
Screening Cc1cc(C(=O)OCC(=O)c2cccc([N+](=O)[O-])c2)c2ccccc2n1 returned N370S GC mod 4% and FEN1 inh -1%.
Screening CCCOc1ccc(/C=N/NC(=O)CSCc2ccc([N+](=O)[O-])cc2)cc1OCC returned N370S GC mod -6% and FEN1 inh -13%.

Additional compounds follow:
Screening COc1ccc(/C=N/n2c(C)nc3c([nH]c4ccccc43)c2=O)cc1CN1CCCC(C)(C)C1 returned N370S GC mod -13% and FEN1 inh -17%.
Screening COc1ccc(NC(=O)COC(=O)CCc2nc3ccccc3c(=O)[nH]2)cc1Cl returned FEN1 inh -20%.
For Cc1ccc(-c2ccc(CO)o2)cc1N the results were N370S GC mod 4% and FEN1 inh -12%.
`COc1cc(OC)cc(C(=O)Nc2ccc(-c3nc4ccccc4s3)c(C)c2)c1` gave FEN1 inh 0%.
Screening Cc1cc(C)n2nc(SC(C)C(=O)NC3CCCCC3C)nc2n1 (stereo not given) returned N370S GC mod -1% and FEN1 inh 3%.
For Cn1nc(C(=O)OCC(=O)c2ccc[nH]2)c2ccccc2c1=O the results were N370S GC mod -3% and FEN1 inh 0%.
For CN(C)C(=O)c1ccc(-c2n[nH]c(=O)c3ccccc23)cc1 the results were N370S GC mod -15% and FEN1 inh 9%.
`Cn1c(NC(=O)c2ccco2)c(-c2ccccc2Cl)c(=O)c2ccccc21` gave N370S GC mod -11% and FEN1 inh 15%.
`COC(=O)C(C(=O)Nc1cc(C)on1)C1CCCCCC1` (stereo not given) gave N370S GC mod 7% and FEN1 inh 0%.
Screening COCCn1nnnc1C(C(C)C)N(Cc1cccnc1)Cc1cc2cc(OC)ccc2[nH]c1=O (stereo not given) returned N370S GC mod -10% and FEN1 inh -4%.
Screening CS(=O)(=O)OCCCCOS(C)(=O)=O returned N370S GC mod 4%&-18%&9% and FEN1 inh -1%.
Cc1ccc(CNC(=O)CCc2cn(C)c3ccccc23)cc1 was read as N370S GC mod 1% and FEN1 inh 0%&-1%.
For CCCCNc1ncnc2c1cnn2-c1ccc(C)cc1C the results were N370S GC mod 26% and FEN1 inh 13%.

Assay outcomes as filed in PubChem.

Some of the compounds tested, and most or all hits are left out here.
